miR-21 FLuc – miR-21 reporter, rising signal | HeLa miR-21 FLuc reporter, luciferase, 48 h | Potency, µM (series often up to 38.3 µM), without a hit: top-dose reporter change, positive = more light | 340,000 tested, under 10 active | AID 2288; active = well fitted rising curve with a large enough effect; inconclusive = small, poorly fitted or top-dose-only effect; inactive = no such curve, though single readings can be large or run the other way;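 note: % of control where 0% means no effect; miR-21 action dims this reporter so a rising signal means less miR-21 action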
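HeLa cells endogenously expressing miR-21, stably carrying CMV-driven firefly luciferase with a downstream miR-21 binding site, 2000 cells/well. Titrations up to approximately 40 uM, 48 hours; luciferase luminescence read.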
GLA inh pH 4.5 – alpha-galactosidase A (human) inhibition, pH 4.5; P06280; purified enzyme, 4-MU-alpha-Gal fluorescence, pH 4.5; activity change, negative = inhibition, % at 105 µM; 230,000 tested, under 10 active; inconclusive = small, poorly fitted or top-dose-only inhibition, or a rising curve; inactive = flat fitted curve, though single readings scatter; no compound was filed as active;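 note: 0% = full activity with enzyme and -100% = basal without enzyme; dose as in the result columns while the protocol names 77 µM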
Target sequence (P06280 whole entry, looked up): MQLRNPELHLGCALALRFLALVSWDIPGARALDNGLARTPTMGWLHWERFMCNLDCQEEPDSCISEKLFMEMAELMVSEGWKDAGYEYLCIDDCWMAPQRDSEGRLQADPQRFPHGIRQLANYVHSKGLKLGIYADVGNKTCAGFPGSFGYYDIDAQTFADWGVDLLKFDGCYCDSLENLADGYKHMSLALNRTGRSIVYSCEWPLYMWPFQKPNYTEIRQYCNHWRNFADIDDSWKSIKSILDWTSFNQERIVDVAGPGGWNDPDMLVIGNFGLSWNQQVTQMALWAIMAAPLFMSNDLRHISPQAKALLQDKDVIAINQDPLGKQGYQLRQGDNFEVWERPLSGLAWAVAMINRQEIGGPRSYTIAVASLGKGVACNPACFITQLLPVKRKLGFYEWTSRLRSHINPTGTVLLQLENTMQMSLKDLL
Rango-impB inh – prevents formation of the Rango-importin beta complex; Rango CFP/YFP FRET sensor + importin beta, 45 min; Potency, µM (top dose mostly 92.2 µM), for the others: at the highest dose inhibition of complex formation; 340,000 compounds, 0.031% hits; Q14974; active = rising FRET ratio curve, often small or poorly fitted; inconclusive = mostly compound fluorescence or quenching in the first reads; inactive = flat curves in all reads;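 note: potency is the fitted concentration of half-maximal effect; 0% = DMSO wells and 100% = buffer wells lacking importin beta; nearly all actives have a fitted effect of over 15% in size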
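FRET biosensor Rango (snurportin 1 IBB between N-terminal EYFP and C-terminal Cerulean), 50 nM in PBS/1 mM DTT/0.02% Tween-20/0.1% BSA, preincubated 5 min RT with compound; 0.125 microM importin beta added, 45 min RT, CFP/YFP FRET ratio read.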
Rango dissoc inh – inhibitors of RanGTP-induced Rango-importin beta complex dissociation | Potency, µM (series often up to 46.1 µM), for the others: at the top dose activity change, negative = inhibition | Biochemical FRET Rango-importin beta, RanGTP-induced dissociation | 340,000 compounds, 0.071% hits | O95149+P62826 | AID 540253; active means falling FRET ratio curve, often poorly fitted, with flat reads before Ran was added; inconclusive means other falling curves, or compound fluorescence or quenching; inactive means flat or rising ratio curve;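 note: potency is the fitted concentration of half-maximal effect; % of control where 0% means no effect; nearly all actives have a fitted effect of over 45% in size; -100% = wells without RanGTP and RCC1; the record marks most hits as doubtful in a second field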
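Compounds preincubate 5 min with complex of recombinant Rango and importin beta in PBS with 1 mM DTT. Ran (0.6 uM) loaded with 2 mM GTP plus 0.2 uM RCC1 starts dissociation; FRET is recorded 45 min later.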
Starred values were filed as active, the others as inactive; u = inconclusive; x = no result given. These rows are one share of the data (hit frequency here may not be typical).

Under each structure: miR-21 FLuc, GLA inh pH 4.5, Rango-impB inh, Rango dissoc inh
> O=C1C(Cl)=C(N2CCOCC2)C(=O)N1CCc1ccccc1
    -49%, 8, u, -27%
> Cc1ccccc1N1CCN(c2ncnc3c2cnn3Cc2ccc(Cl)cc2)CC1
    14%, -21, -2.0%, 1%
> COc1ccc(/C=N/OCC(=O)NCC(C)C)c(OC)c1
    -4%, -6, -1.6%, 0%
> CC(C)c1nc2n[nH]c(N)c2c2c1CCC2
    -17%, u, 0.8%, -8%
> CCOC(=O)c1[nH]c2ccc(F)cc2c1NC(=O)C1=COCCO1
    -1%, -6, -0.6%, 7%
> Cc1ccccc1Cc1ccc(Cl)nn1
    -1%, 3, -2.6%, 5%
> CSCc1cc(N2CCOCC2)nc(SCc2ccc(Cl)c(Cl)c2)n1
    -17%, -4, 0.1%, 17%
> N#Cc1ccccc1S(=O)(=O)c1ccccc1C(=O)Nc1ccccc1
    -3%, -2, 4.0%, 18%
> COc1ccc(Cl)cc1NC(=O)c1ccc2c(SCC(=O)O)c3c(nc2c1)CCCC3
    -5%, x, -0.1%, 0%
> O=C(COc1ccc(S(=O)(=O)NC2CCCCC2)cc1Cl)Nc1ccc2c(c1)OCO2
    20%, -3, -5.7%, -6%
> Cc1cc(=O)oc2cc(OC(C)C(=O)O)c(Cl)cc12 (stereo unspecified)
    -4%, 11, -4.4%, -6%
> COCCCNC(=O)c1c[nH]c2ccc(S(=O)(=O)N3CCC(C)CC3)cc2c1=O
    2%, 4, 4.2%, 0%
> O=S(=O)(NCCC(c1ccc(F)cc1)c1ccco1)c1ccccc1 (stereo unspecified)
    6%, -20, -1.6%, 1%
> O=C(OCCN1CCOCC1)c1cccs1
    -8%, 1, -2.6%, 0%
> CCn1c(=NC(=O)CSC(C)=O)sc2cc(F)ccc21
    -10%, 0, -0.3%, 21%
> Cc1ccc(CNC(=O)c2ccc(N(C)S(=O)(=O)c3ccccc3)cc2)cc1
    0%, x, 3.1%, 15%
> O=C(O)c1ccccc1-n1cccc1C(=O)O
    -1%, -4, 1.1%, 43%
> O=C(CN1C(=O)C2CCCCC2C1=O)OCC(=O)c1ccc(Cl)s1 (stereo unspecified)
    -3%, -6, -2.3%, 22%
> COc1ccc(Nc2nc(N3CCCCC3)nc(N3CCCCC3)n2)c(OC)c1
    0%, 10, 4.0%, 3%
> COc1ccc(CCN(C)C2CCCN(S(=O)(=O)c3ccc(C)cc3)C2)cc1OC (stereo unspecified)
    14%, x, 0.1%, 12%

Looked up one by one from the list above (3):
Under each structure: miR-21 FLuc, GLA inh pH 4.5, Rango-impB inh, Rango dissoc inh
> COc1ccc(Cl)cc1NC(=O)c1ccc2c(SCC(=O)O)c3c(nc2c1)CCCC3
    -5%, x, -0.1%, 0%
> O=C(O)c1ccccc1-n1cccc1C(=O)O
    -1%, -4, 1.1%, 43%
> Cc1ccccc1Cc1ccc(Cl)nn1
    -1%, 3, -2.6%, 5%

(list continues)
Under each structure: miR-21 FLuc, GLA inh pH 4.5, Rango-impB inh, Rango dissoc inh
> COc1cc(C)ccc1OCc1cc(C(=O)N(Cc2c(C)nn(C)c2C)C2CC2)no1
    -22%, x, u, 3%
> COc1cccc(/C=N/NC(=O)c2cccc3ccccc23)c1
    0%, x, -1.1%, -6%
> CCN(CC)S(=O)(=O)c1cccc2cccnc12
    -3%, -5, 0.1%, -5%
> CCOc1ccccc1CNC(=O)Cn1nc(C)c2c(C)n(-c3ccc(C)cc3)nc2c1=O
    18%, x, 2.3%, -1%
> Cc1nc(-c2ccc(NC(=O)C3CC3)cc2)cs1
    -59%, x, -4.2%, 0%
> O=C(Oc1ccc(Br)cc1C(=S)N1CCOCC1)c1ccc([N+](=O)[O-])cc1[N+](=O)[O-]
    4%, x, -5.4%, 10%
> Cc1ccc(C2=NOC(c3nnc(-c4ccccc4)o3)C2)cc1 (stereo unspecified)
    x, x, 1.6%, -18%
> O=C(c1ccco1)N1CCN(C(=S)Nc2ccc(F)c(Cl)c2)CC1
    1%, x, -2.3%, -4%
> Cc1cccc(NC(=O)CSc2cccc3cccnc23)c1C
    -4%, x, -1.2%, -3%
> CCC(C)Sc1nc2c(cnn2-c2ccc(C)c(C)c2)c(=O)[nH]1 (stereo unspecified)
    -22%, -6, -5.1%, 36%
> CC(=O)Nc1ccc(NC2(C)C(=O)c3ccccc3C2=O)cc1
    0%, -1, 2.1%, -5%
> OCCNNC(=S)NC1CC2C=CC1C2 (stereo unspecified)
    6%, 4, 2.2%, 0%
> COc1cccc2[nH]c3c(=O)n(CCN(C)C)cnc3c12
    -3%, 15, -0.2%, -20%
> O=C(Cn1c(CN2CCCCC2)nc2ccccc2c1=O)NC1CCCCC1
    4%, -23, 1.2%, 6%
> Cc1cc(C)c2c(=O)[nH]c(SCC(=O)NCc3ccccc3)nc2n1
    5%, -17, u, -5%
> O=C(COC(=O)COc1ccc2ccccc2c1)Nc1cc(C(F)(F)F)ccc1N1CCOCC1
    -4%, -5, 3.0%, 1%
> c1ccc(CNC2=NCCCCC2)cc1
    -2%, 1, -0.3%, 9%
> O=C(NC1CCCCCC1)C(=S)N1CCOCC1
    -2%, 7, 3.5%, 1%
> CCOC(=O)N1CCC(NC(=O)CSCc2cnn(-c3ccccc3)c2-n2cccc2)CC1
    2%, 11, 1.2%, -3%
> Cc1cc(C)nc(Nc2n[nH]c(-c3ccccc3Br)n2)n1
    -48%, 4, 2.1%, 13%
> CCNC(=O)CC1C(=O)N(c2ccc(C)cc2)C(=O)N1CCc1ccc(OC)c(OC)c1 (stereo unspecified)
    -5%, 2, 3.1%, 1%
> O=C1/C(=C/c2cccnc2)CC/C1=C\c1cccnc1
    -1%, -7, -4.3%, -5%
> CCOc1ccccc1C(=O)Nc1ccc(NC(=O)c2ccccc2)cc1
    -3%, x, 0.3%, 18%
> COc1ccc(N2CCN(C(=O)Cc3ccc(-n4c(=O)[nH]c5ccccc5c4=O)cc3)CC2)cc1
    -1%, -6, 0.1%, 10%
> Cc1ccc(S(=O)(=O)N2CC(=O)N3CCN(CCN)C3C2)cc1 (stereo unspecified)
    x, x, -1.2%, -18%
> C[C@@H]1COC(=O)[C@H](CC(=O)OC(C)(C)C)C/C=C\C[C@@H](CC(=O)NCCO)C(=O)N1
    x, x, -3.7%, 9%
> O=C(Nc1cccnc1)c1scc2c1OCCO2
    -1%, -1, u, 12%
> CCOCCCNC(=O)c1ccc2c(=O)n(CCCOCC)c(=S)[nH]c2c1
    4%, -2, 0.8%, -1%
> COc1cc(OC)cc(C(=O)NCC(=O)OCC(=O)c2cc(C)n(Cc3ccco3)c2C)c1
    -9%, 0, 3.2%, 0%
> CCOc1ccc(N2CC(C(=O)Nc3ccc(S(=O)(=O)NCC4CCCO4)cc3)CC2=O)cc1 (stereo unspecified)
    7%, x, 0.0%, 7%
> CCC1(CC)Cc2ccccc2C(=O)N1
    0%, -2, -0.8%, 4%
> O=C(CSCc1c(Cl)cccc1Cl)Nc1ccc2c(c1)OCCO2
    -52%, -3, 1.8%, 1%
> CCCCCCCCCCCCN1[C@@H](CC(=O)O)c2cc(C(F)(F)F)ccc2S1(=O)=O
    x, x, -3.6%, -6%
> CCCN(CC(=O)Nc1ccc(F)c(F)c1F)C(=O)Cn1c(=O)cnc2ccccc21
    x, x, -1.1%, -8%
> Cc1cc(NC(=O)CSC2=NCCS2)no1
    -4%, 6, 4.3%, -10%
> CCCN1CNC(=S)N(c2ccc(C)cc2C)C1
    0%, 3, 0.2%, -1%
> COc1ccc(C)c2sc(NC(=O)c3cccc(N4C(=O)CCC4=O)c3)nc12
    0%, x, -4.3%, 5%
> COCCCNC(=O)c1ccc(NC(C)=O)cc1
    -4%, 6, 1.9%, 0%
> COc1cccc(C(=O)NC2CCN(C(=O)N3CCCCC3)CC2)c1
    -1%, -5, 2.1%, -13%
> CC(=O)N(Cc1ccc(Br)cc1)c1cccc(C)c1C
    19%, 1, 1.0%, 7%
> CSc1ncccc1C(=O)OCc1ccc(Br)cc1
    -23%, 2, -0.3%, 0%
> O=C(NCCO)Nc1ccc2nc(-c3ccco3)c(-c3ccco3)nc2c1
    8%, 8, x, x
> NC1=NC[C@H](Cc2ccc(O)cc2)N1CCc1cccc2ccccc12
    9%, -2, -1.8%, -9%
> COC(=O)c1ccccc1NC(=O)CNCCc1ccc(OC)c(OC)c1
    -8%, x, -0.3%, -11%
> CN(CCc1ccccn1)c1ccc([N+](=O)[O-])cn1
    -9%, -5, 0.2%, 0%
> c1cc2c(cc1-n1cnnn1)OCO2
    2%, 8, -4.9%, -9%
> CCc1nnc(NC(=O)C(=O)NCCOC(=O)c2ccccc2)s1
    3%, 7, -1.2%, 0%
> COc1ccc(NC(=O)N2C3CCCC2CC(NC(=O)C2CC2)C3)cc1 (stereo unspecified)
    -2%, x, -3.6%, -7%
> Cc1c(C)n(C(=O)CN2CCN(c3ccccc3)CC2)c2ccccc12
    -3%, -12, -3.4%, 2%
> O=C(Cn1cnc2ccccc2c1=O)Nc1nnc(SCc2ccccc2)s1
    0%, 0, -1.1%, 0%
> COc1ccc(C)cc1NC(=O)C(OC(=O)CNC(=O)c1cccc(F)c1)c1ccccc1 (stereo unspecified)
    -8%, -9, 6.2%, 37%
> CC(=O)N1N=C(N)SC1c1cccc([N+](=O)[O-])c1 (stereo unspecified)
    -3%, 2, -3.4%, -1%

Entries from the list above with a Cl atom (10):
Under each structure: miR-21 FLuc, GLA inh pH 4.5, Rango-impB inh, Rango dissoc inh
> O=C1C(Cl)=C(N2CCOCC2)C(=O)N1CCc1ccccc1
    -49%, 8, u, -27%
> Cc1ccccc1N1CCN(c2ncnc3c2cnn3Cc2ccc(Cl)cc2)CC1
    14%, -21, -2.0%, 1%
> Cc1ccccc1Cc1ccc(Cl)nn1
    -1%, 3, -2.6%, 5%
> CSCc1cc(N2CCOCC2)nc(SCc2ccc(Cl)c(Cl)c2)n1
    -17%, -4, 0.1%, 17%
> COc1ccc(Cl)cc1NC(=O)c1ccc2c(SCC(=O)O)c3c(nc2c1)CCCC3
    -5%, x, -0.1%, 0%
> O=C(COc1ccc(S(=O)(=O)NC2CCCCC2)cc1Cl)Nc1ccc2c(c1)OCO2
    20%, -3, -5.7%, -6%
> Cc1cc(=O)oc2cc(OC(C)C(=O)O)c(Cl)cc12 (stereo unspecified)
    -4%, 11, -4.4%, -6%
> O=C(CN1C(=O)C2CCCCC2C1=O)OCC(=O)c1ccc(Cl)s1 (stereo unspecified)
    -3%, -6, -2.3%, 22%
> O=C(c1ccco1)N1CCN(C(=S)Nc2ccc(F)c(Cl)c2)CC1
    1%, x, -2.3%, -4%
> O=C(CSCc1c(Cl)cccc1Cl)Nc1ccc2c(c1)OCCO2
    -52%, -3, 1.8%, 1%
